High-throughput results: PubChem, National Center for Advancing Translational Sciences (NCATS)
TRPML1 ag – qHTS for Agonists of the Human Mucolipin Transient Receptor Potential 1 (TRPML1); TRPML1-expressing cells, Ca2+ dye fluorescence, FDSS; host cell line not named in the record; reference of the full effect not given here; activation, % (no concentration beside the values); hit rate 0.12% among 410,000; AID 624414, 2012; in the data active = activation above about 50%; inconclusive = about 30% to 50%; inactive = below about 30%; further: 0% is about no effect; the text of the record puts the active cut at 80%
Target sequence (Q9GZU1 whole entry, looked up): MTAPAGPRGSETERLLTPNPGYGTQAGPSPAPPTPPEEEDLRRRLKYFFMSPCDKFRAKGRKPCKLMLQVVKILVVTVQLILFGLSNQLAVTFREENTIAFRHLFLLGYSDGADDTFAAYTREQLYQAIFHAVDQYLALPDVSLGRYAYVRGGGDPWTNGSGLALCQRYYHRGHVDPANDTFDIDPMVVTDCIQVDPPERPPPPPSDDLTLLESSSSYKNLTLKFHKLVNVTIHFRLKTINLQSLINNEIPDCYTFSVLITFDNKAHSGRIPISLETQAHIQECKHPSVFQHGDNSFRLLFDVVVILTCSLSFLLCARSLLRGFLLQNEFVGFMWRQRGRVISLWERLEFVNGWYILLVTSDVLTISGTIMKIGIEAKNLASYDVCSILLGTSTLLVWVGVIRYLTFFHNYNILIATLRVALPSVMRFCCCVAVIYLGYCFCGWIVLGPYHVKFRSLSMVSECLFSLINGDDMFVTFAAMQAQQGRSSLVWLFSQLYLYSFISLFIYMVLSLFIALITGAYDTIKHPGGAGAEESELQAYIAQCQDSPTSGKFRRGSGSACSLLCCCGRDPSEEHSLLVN
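Tetracycline-induced TRPML1-DL cells are seeded and incubated overnight before loading with a no-wash Ca2+ dye and quencher. Agonist activity is taken from the 110 s fluorescence read following compound pin-transfer on an FDSS, before EC80 54-4 challenge.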
CtBP-E1A blk – qHTS Assay for Inhibitors of the CtBP/E1A Interaction; AlphaScreen GST-E1A/His-CtBP binding, 1536-well; active compounds read low; control for the full effect not named in the record; hit rate 0.49% among 340,000; CtBP / adenovirus E1A interaction (AlphaScreen); activity change, % (no concentration beside the values); in the data active means activity change below about -65%; inconclusive means about -30% to -65%; inactive means above about -30%; further: on the % scale 0 is the no-effect control and ±100 the full control effect
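Steps: dispense buffer (Tris pH 8.0, NaCl 300 mM, TCEP 1 mM, BSA, Tween 20); add 5X protein mix (GST-E1A, His-CtBP, 125 nM each); pin 23 nL compound; 2 h at 37 °C, dark; add 5X beads (50 ug/mL); 1 h; read.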
TRPV1 PAM – HTS Assay for Compounds that Act as Potentiators of the Vanilloid Receptor 1. TRPV1-expressing cells, Fluo-8 calcium influx, capsaicin EC20 potentiation; host cell line not named in the record; control for the full effect not named in the record. potentiation, % at 8.33 µM. hit rate 0.02% among 320,000; active means potentiation above 80%; inconclusive means 30% to 80%; inactive means below 30%; further: 0% is about no effect
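Cells expressing TRPV1 were dye-loaded with Fluo-8 and read kinetically: 10 s baseline, 3 min after compound (agonist portion), then 2 min after EC20 capsaicin (allosteric enhancer portion). Calcium-bound dye fluorescence at 480/520 nm.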
TRPML1 blocker – qHTS for Inhibitors of the Human Mucolipin Transient Receptor Potential 1 (TRPML1) | AID 624415, 2012 | Mucolipin-1 (Homo sapiens), Q9GZU1 | hit rate 0.02% among 390,000 | activity change, negative = inhibition, % (concentration not given with the values) | TRPML1-inducible cells, Ca2+ dye fluorescence, FDSS; active compounds read low; inhibition of EC80 agonist-evoked calcium signal; in the data active means activity change below about -50%; inconclusive means about -30% to -50%; inactive means above about -30%;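 further: stimulus is agonist 54-4 at its EC80 concentration; on the % scale 0 is the no-effect control and ±100 the full control effect; the text of the record puts the active cut at -80%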
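Calcium fluorescence in TRPML1-DL cells induced overnight with Tet: a 110 s read after compound pin addition, then a 110 s antagonist read after challenge with 54-4 at 4 uM final (EC80).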
D2 potentiator – Beta-Arrestin HTS for Positive Allosteric Modulators of the Human D2 Dopamine Receptor: Potentiators. DiscoveRx D2 beta-arrestin cells, luminescence, 90 min; 100% = 57 uM dopamine signal. potentiation, % (test concentration not listed). hit rate 0.23% among 360,000. AID 624464, 2012; active = potentiation of 50% or more; inconclusive = 30% to 50%; inactive = 30% or less;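 further: compound concentration not given in the record; tested on top of an EC20 dose of dopamine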
Target sequence (P14416 whole entry, looked up): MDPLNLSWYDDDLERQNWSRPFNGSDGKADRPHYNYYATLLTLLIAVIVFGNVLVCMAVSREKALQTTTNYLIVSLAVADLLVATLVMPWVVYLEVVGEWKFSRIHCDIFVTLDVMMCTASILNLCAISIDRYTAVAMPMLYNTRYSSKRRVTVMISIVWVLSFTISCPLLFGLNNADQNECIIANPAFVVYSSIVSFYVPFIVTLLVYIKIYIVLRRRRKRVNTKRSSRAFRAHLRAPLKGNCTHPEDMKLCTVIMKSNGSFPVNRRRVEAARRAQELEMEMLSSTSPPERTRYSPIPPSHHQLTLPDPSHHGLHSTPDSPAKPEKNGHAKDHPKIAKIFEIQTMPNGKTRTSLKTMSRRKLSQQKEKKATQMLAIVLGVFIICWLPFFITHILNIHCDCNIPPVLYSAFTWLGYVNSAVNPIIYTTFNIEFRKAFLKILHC
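PathHunter D2 cells, attached overnight at 37 deg C, received compound in DMSO plus dopamine at EC20 (50 nM final) for 90 min at 37 deg C. Beta-arrestin recruitment was read as luminescence after 1 h with detection reagent at ambient temperature.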
Six1-Eya2 blk – qHTS Assay for Inhibitors of the Six1/Eya2 Interaction | Homeobox protein SIX1 (Homo sapiens) + Protein phosphatase EYA2 (Homo sapiens), … | AlphaScreen GST-Six1/His-Eya2 binding, biochemical; active compounds read low; control for the full effect not named in the record | activity change, % (test concentration not listed) | hit rate 0.56% among 360,000 | AID 651725, 2012; in the data active = activity change below about -65%; inconclusive = about -30% to -65%; inactive = above about -30%; further: on the % scale 0 is the no-effect control and ±100 the full control effect
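AlphaScreen with GST-Six1 and His-Eya2 (5X mix: 250 nM and 500 nM), glutathione donor and nickel acceptor beads; buffer 50 mM Tris pH 8.0, 300 mM NaCl, 1 mM TCEP; 1 h at 37 C in the dark.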
An asterisk follows results filed as active; u = inconclusive; x = not tested or not shown.

Values run as follows: TRPML1 ag, CtBP-E1A blk, TRPV1 PAM, TRPML1 blocker, D2 potentiator, Six1-Eya2 blk
> COc1ccc(CN2CC(C(=O)NCCc3ccc(C)cc3)CC2=O)cc1 (stereo unspecified)
→ 0.0, 0, 8, -7, -3, 5
> O=C(OCc1ccc(C(=O)c2ccccc2)cc1)c1cccc(-c2nnc(-c3ccccc3)o2)c1
→ 0.4, 6, 0, 8, -4, 4
> O=C(NC(=S)NCc1ccco1)c1ccc(Br)cc1
→ -0.3, 3, 4, -7, -7, -21
> Cc1cc(C)c(NC(=O)/C(=C/c2ccccc2)c2ccccc2)c(C)c1
→ 2.1, -12, 0, 28, -13, -9
> O=C(Nc1nnc(-c2ccccc2)s1)c1ccc(F)cc1
→ 0.2, -2, 7, 10, 3, 0
> CC(=O)N1CCC(=NNS(=O)(=O)c2ccc(C)c([N+](=O)[O-])c2)CC1
→ -0.5, 3, 9, -5, -15, -1
> CCOc1ccccc1C(=O)NCc1ccc2c(c1)OCO2
→ 0.0, -1, -3, 15, -5, -1
> CCOc1ccc(S(=O)(=O)N(CC(=O)NCc2cccnc2)c2ccc(C)cc2)cc1
→ 0.4, 1, -1, 6, 0, -3
> CCc1c(C)nc2ncnn2c1Nc1ccc(C)c(C)c1
→ 1.2, 0, 3, -2, 2, -3
> O=S(=O)(NCc1ccc(Cl)cc1Cl)c1cccs1
→ 2.1, 18, -5, 5, -2, 6
> Cc1cccc(NC(=O)c2cc(-c3c(C)cc(C)cc3O)n[nH]2)c1
→ -0.6, 7, -15, -5, -10, 9
> COc1ccc(CCNC(=O)CCN2C(=O)C3CC=CCC3C2=O)cc1OC (stereo unspecified)
→ -0.5, 7, 28, -15, -6, 0
> Cc1cccc(N(CC(=O)NC2CCCCC2)C(=O)CCCC(=O)Nc2ccccn2)c1C
→ -0.6, -8, 4, 6, -8, 2
> CN1CCN(S(=O)(=O)c2ccc(N(C)Cc3cccs3)nc2)CC1
→ -0.3, 8, -38, 0, -22, -7
> COC(=O)c1ccccc1NN=Nc1ccccc1[N+](=O)[O-]
→ -0.8, 2, x, -7, -3, -5
> CCC(C)NC(=O)c1nn(Cc2ccccc2)c(=O)c2ccccc12 (stereo unspecified)
→ 1.4, 13, -10, -8, -4, 13
> OC(CNCc1ccc(Cl)cc1)(c1ccccc1)c1ccc(F)cc1 (stereo unspecified)
→ 0.1, 21, 0, 4, -5, 0
> COc1cc(C=NCC2OCCc3ccccc32)cc(OC)c1 (stereo unspecified)
→ 0.4, -13, -3, u, -7, 6
> CC1=CC(C)(C)N2C(=O)C(=Nc3ccc(O)cc3)c3cccc1c32
→ x, u, 9, x, -5, u
> Nc1nc(N)c2c(n1)CN(Cc1ccc(Cl)cc1)C2
→ -0.3, 0, x, -10, -6, -20
> O=C(N/N=C\c1ccc(CN(Cc2ccc(Cl)cc2)S(=O)(=O)c2ccccc2)o1)C(=O)Nc1ccc(F)cc1
→ -0.5, -1, -3, 11, -22, -2
> O=C1CCC(C(=O)N2CCN(c3ccc(F)cc3)CC2)CN1CC1CCCCC1 (stereo unspecified)
→ -0.9, 4, -1, -6, -11, 1
> CCN(CC)CCn1c2ccccc2c2cnc(N)c(C#N)c21
→ 0.5, -5, 3, 12, -23, -2
> Cc1ccc(OCCn2c(C3CC(=O)N(Cc4ccccc4)C3)nc3ccccc32)cc1 (stereo unspecified)
→ 0.8, 4, 2, 28, -7, -10
> Fc1ccc(-n2nnc(-c3ccccc3Br)n2)cc1
→ 0.6, -11, 24, 22, 0, 8
> COc1ccc(CN2CC(=O)N3[C@H]4c5cc(C)ccc5OC[C@@H]4[C@H](c4ccccc4)[C@]3(C)C2=O)cc1
→ 0.7, -4, x, 10, 1, -19
> FC(F)(F)c1cccc(Cc2noc(CN(Cc3ccccn3)CC3CCCO3)n2)c1 (stereo unspecified)
→ 1.4, 4, 9, -6, -1, 8
> CCc1ccc(NC(=O)CSc2nncn2-c2cccnc2)cc1
→ -0.7, 0, 5, -12, -4, -1
> CCOC(=O)Cn1nnnc1CN1CCN(c2ccc(OC)cc2)CC1
→ -0.4, -3, 6, -2, 6, -5
> CC(C)c1ccc(NC(=O)CSc2nc3ncccc3[nH]2)cc1
→ 0.8, x, -15, 44, -13, -15
> CC1=C(n2nnc3ccccc32)C(c2ccccc2)C(C#N)=C(N)O1 (stereo unspecified)
→ 2.2, -3, 4, -2, -1, 4
> Cc1ccc(S(=O)(=O)/N=C2\C=C(NS(=O)(=O)c3ccccc3)C(=O)c3ccccc32)cc1
→ 1.9, -28, x, 6, 1, u
> Cc1ccc(C)c(NC(=O)Cn2nc(-c3ccccc3)nc2-c2ccccc2)c1
→ 1.0, 6, -5, -13, -10, -3
> COc1ccc(N(CC(=O)NCc2ccco2)C(=O)CCC(=O)Nc2nccs2)cc1
→ -0.6, -5, u, -19, -20, -1
> Cc1ccc(C(=O)NCC(=O)OC2CCCCC2=O)cc1C (stereo unspecified)
→ -0.1, -2, x, 1, -10, 5
> CC(C)C[C@H](NC(=O)c1nc[nH]c1C(=O)N1CCc2ccccc2C1)C(=O)OC(C)(C)C
→ 0.6, -13, 8, -6, -3, -4
> CC1CCCC(C)N1/N=C/c1cccc([N+](=O)[O-])c1 (stereo unspecified)
→ 1.0, -6, -22, -11, 13, u
> CSCCNC(=O)c1cccc(Cl)c1
→ -0.4, 8, -21, -3, -4, 6
> CC(NC1CCN(Cc2ccccc2)CC1)c1ccc(F)cc1 (stereo unspecified)
→ 1.4, -2, -7, -1, -10, 14
> C=CCN1C(=O)CN=C1Nc1cc(C)cc(C)c1
→ -0.1, 4, -12, -2, -3, 3
> CC(C)[C@@H]1Cc2[nH]c(=O)[nH]c(=O)c2[C@H](c2ccc(F)cc2)O1
→ -0.3, 0, x, x, x, 1
> CN(C)CC(C)(C)CNS(=O)(=O)c1ccc(OC(F)(F)F)cc1
→ 0.0, 10, -9, 31, -3, 2
> CCCc1ccc(S(=O)(=O)NCCc2ccncc2)cc1
→ -0.1, 0, x, -16, -14, 3
> CC(=O)Nc1cccc(NC(=O)CSc2ncc(-c3ccc(Cl)cc3)n2Cc2ccco2)c1
→ -1.4, -3, -3, -7, -8, -14
> CC(C)(Oc1ccc(Cl)cc1)C(=O)N(Cc1ccccc1)c1ccccn1
→ 3.6, 39, -9, 16, -9, 19
> O=C(CSc1nnc(-c2ccco2)o1)NC(=O)C1COc2ccccc2O1 (stereo unspecified)
→ -0.5, -1, 8, 36, -9, 4
> CCOc1ccccc1N1CSC2=C(C#N)C(c3c(OC)ccc4ccccc34)CC(=O)N2C1 (stereo unspecified)
→ -0.2, -6, x, -4, -5, -1
> OCCCCNCc1ccc(OCc2ccc(Cl)cc2)cc1
→ 0.1, -15, 5, -18, -13, -10
> CCc1cccc(CC)c1-n1c(SCc2cc(=O)n3ccsc3n2)nnc1-c1cccnc1
→ -0.4, -14, -6, 60, 2, -12
> O=C(c1cc2c(s1)CCC2)N1CCN(c2ccccc2)CC1
→ -1.2, -4, 30, 15, -5, -14
> COc1ccc(NS(=O)(=O)c2cccc(C(=O)N(C)CC(=O)Nc3ccc(C)cc3)c2)cc1
→ -0.3, -3, 13, -10, -29, -6
> N#Cc1ncc(C(F)(F)F)cc1Sc1ccc(N)cc1
→ 1.0, -1, u, u, 5, -1
> Cc1nnc(-c2ccccc2)nc1N1CCOCC1
→ -0.6, 3, 10, -7, 7, -1
> COc1cc(-c2cnc3c(NC=O)cc(-c4ccc(N5CCN(C)CC5)cc4)cn23)cc(OC)c1OC
→ -0.4, -28, x, x, -13, u
> CCN(CC(=O)NC(=O)NC1CCCCC1)Cc1nc2ccccc2c(=O)[nH]1
→ -0.5, -1, -4, -6, -12, -3
> O=C(c1ccccc1)c1ccc(C(=O)N2CCN(c3ccccc3O)CC2)cc1
→ 1.6, -4, x, -8, 20, -15
> CN(C)/C=N/N(C)c1ncccc1[N+](=O)[O-]
→ 0.2, 5, 1, 4, 5, 5
> COc1ccc(Cl)cc1C(=O)NNC(=O)CCNC(C)=O
→ -0.8, -12, 2, -25, -1, 2
> OCCC1CN(Cc2cnc(N3CCCC3)s2)CCN1Cc1ccccc1 (stereo unspecified)
→ -0.5, 7, -5, 11, -15, -5
> COc1ccccc1CNS(=O)(=O)c1ccc(Cl)s1
→ -1.2, 24, 2, 17, -1, 16

Shown bar-delimited: entries from further up
structure | TRPML1 ag | CtBP-E1A blk | TRPV1 PAM | TRPML1 blocker | D2 potentiator | Six1-Eya2 blk
O=C(c1cc2c(s1)CCC2)N1CCN(c2ccccc2)CC1 | -1.2 | -4 | 30 | 15 | -5 | -14
COc1ccc(NS(=O)(=O)c2cccc(C(=O)N(C)CC(=O)Nc3ccc(C)cc3)c2)cc1 | -0.3 | -3 | 13 | -10 | -29 | -6
N#Cc1ncc(C(F)(F)F)cc1Sc1ccc(N)cc1 | 1.0 | -1 | u | u | 5 | -1
Cc1nnc(-c2ccccc2)nc1N1CCOCC1 | -0.6 | 3 | 10 | -7 | 7 | -1
COc1cc(-c2cnc3c(NC=O)cc(-c4ccc(N5CCN(C)CC5)cc4)cn23)cc(OC)c1OC | -0.4 | -28 | x | x | -13 | u
CCN(CC(=O)NC(=O)NC1CCCCC1)Cc1nc2ccccc2c(=O)[nH]1 | -0.5 | -1 | -4 | -6 | -12 | -3
O=C(c1ccccc1)c1ccc(C(=O)N2CCN(c3ccccc3O)CC2)cc1 | 1.6 | -4 | x | -8 | 20 | -15
CN(C)/C=N/N(C)c1ncccc1[N+](=O)[O-] | 0.2 | 5 | 1 | 4 | 5 | 5
COc1ccc(Cl)cc1C(=O)NNC(=O)CCNC(C)=O | -0.8 | -12 | 2 | -25 | -1 | 2
OCCC1CN(Cc2cnc(N3CCCC3)s2)CCN1Cc1ccccc1 (stereo unspecified) | -0.5 | 7 | -5 | 11 | -15 | -5
COc1ccccc1CNS(=O)(=O)c1ccc(Cl)s1 | -1.2 | 24 | 2 | 17 | -1 | 16

(cont.)
Values run as follows: TRPML1 ag, CtBP-E1A blk, TRPV1 PAM, TRPML1 blocker, D2 potentiator, Six1-Eya2 blk
> C/C=C/C(=O)OCC(=O)Nc1ccc(OC)c(Cl)c1
→ -0.5, 7, 8, -3, -8, 12
> COc1ccc(C(=O)Nc2cccc(NC(=O)c3cccs3)c2)cc1
→ 0.5, 1, -10, 1, -19, -11
> CN(C)c1cc[n+](CC(=O)c2cccs2)cc1
→ 0.7, -10, -2, -16, -7, -7
> COc1ccc(Nc2nc(N)nc(CN(C)C3CCCCC3)n2)cc1
→ -0.8, -19, -22, 3, 0, -15
> CCc1nc(NCc2ccco2)c2oc3ccccc3c2n1
→ 2.3, 0, 6, 16, -5, 1
